TAR Tat displ: HIV-1 TAR-Tat binding disruption; HIV-1 TAR RNA, Tat peptide displacement FRET; active compounds read high; actives 0.6% (n = 100,000); z-score (no concentration beside the values);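 note: score is relative to mean and SD of negative controls; some compounds called inactive have numbers as strong as hits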
CDC25B-CDK2 inh: human CDC25B-CDK2/CyclinA binding inhibition | P30305+P24941 | HTRF CDC25B-CDK2/CyclinA binding, anti-His/anti-Flag; active compounds read high | z-score (concentration not given with the values) | actives 0.72% (n = 94,000);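 note: score is relative to mean and SD of negative controls; strong numbers were not always called active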
The depositor's hits bear a star; x = no result given.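 Rule for the calls: active = z-score from 3 up in half or more of its runs; inactive = the rest.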

SMILES	TAR Tat displ	CDC25B-CDK2 inh
Cc1onc(-c2ccccc2)c1C(=O)NC1CCCCC1NC(=O)c1c(-c2ccccc2)noc1C (configuration not stated)	x	-0.8
O=[N+]([O-])c1cc(Cl)ccc1Oc1c(Cl)cccc1Cl	x	-1.4
Cc1cc(C)cc(N2C(=O)N(Cc3ccc(F)cc3Cl)C3CS(=O)(=O)CC32)c1 (configuration not stated)	0.99	-0.47
CCc1nnc(NC(=O)CSc2nnc(-c3cc4ccccc4o3)n2CC)s1	1.9	x
COc1ccc(NC(=O)NCCn2nnc3ccccc32)cc1	0.85	x
CC(=O)Oc1cccc([N+](=O)[O-])c1	x	-1
Cc1c(C(=O)Nc2ccc3nsnc3c2)oc2cc(Br)ccc12	0.77	0.15
Cc1ccc(N(Cc2cc3ccc(C)cc3[nH]c2=O)S(C)(=O)=O)cc1	3	-1.1
O=C(Cn1cnc2c(nc3n2CCCCC3)c1=O)NCc1ccco1	-1.4	x
O=C(CCCCCn1c(=S)[nH]c2ccsc2c1=O)NCc1ccco1	x	0.17
CCOC(=O)N1CCN(S(=O)(=O)N2CCCC(C(=O)NCCOC)C2)CC1 (configuration not stated)	1.7	x
Cc1ccc(CNC(=O)C2CCN(S(=O)(=O)c3ccc4c(c3)CC(C)N4C(=O)C3CCC3)CC2)o1 (configuration not stated)	-0.17	x
COc1cc(C2C(C(=O)OC(C)C)C(=O)CC(C)(O)C2C(=O)OC(C)C)ccc1O (configuration not stated)	0.36	0.04
COc1ccc(-n2ccn3c(CCC(=O)N4CCN(C5CCCCC5)CC4)nnc3c2=O)cc1	-1.5	x
Cc1ccc(NC(=O)C(=O)NCCN2CCNCC2)cc1	x	-0.34
CC(C)CCC1=NN(C(=O)c2ccccc2Cl)C(O)(C(F)(F)F)C1 (configuration not stated)	x	0.43
CCOc1ccc(-c2nc(-c3ccc(OC)cc3)no2)cc1OCC	0.68	-0.71
O=S(=O)(CCSc1ccc(C(F)(F)F)cn1)CCSc1ccc(C(F)(F)F)cn1	x	-2.2
Cn1cnc(S(=O)(=O)NCc2ccccc2Cl)c1	2	x
CN(C)C(=O)CCc1nc(-c2ccc(C(C)(C)C)cc2)no1	1.7	-1.2
COc1ccc(-c2nnc3c4ccccc4c(Cl)nn23)cc1	x	-4.8
CCC(=O)N1c2ccc(S(=O)(=O)CCC(=O)NCc3cccs3)cc2CC1C (configuration not stated)	x	-1.2
O=C(Nc1cccc(Cl)c1)N1Cc2ccccc2C(N2CCOCC2)c2ccccc21 (configuration not stated)	0.9	-1.8
COc1ccc2cc(C(=O)Nc3c(C)n(C)n(-c4ccccc4)c3=O)sc(=O)c2c1OC	-0.8	-0.16
O=C(Nc1ccc(C(F)(F)F)cn1)Nc1cccs1	x	-0.6
O=S1(=O)C[C@H](NCc2ccccn2)[C@@H](S(=O)(=O)c2ccc(F)cc2)C1	-1.3	-2.2
CCN(CC)C(=O)CSc1nc(-c2ccc(C)cc2)nc2c1COC(C)(C)C2	2.8	0.52
Nc1ncnc2nc(Sc3ncnc4ccccc34)[nH]c12	x	-2.5
CC(C)c1nn2c(=O)cc(COC(=O)c3ccc(F)cc3)nc2s1	-1.4	x
CNC(=O)c1cc2c(n(-c3ccc(Cl)cc3)c1=O)CC(C)(C)CC2=O	-0.04	0.02
CCC1=NN(C(=O)Cc2ccc(OC)c(OC)c2)C(O)(C(F)(F)F)C1 (configuration not stated)	x	-0.76
c1ccc(-c2nc(NC3CCCCC3)c3ccccc3n2)cc1	-0.07	-0.72
Cc1nnc(NC(=O)C2c3ccccc3Oc3ccccc32)s1	0.37	-1.2
O=C1CC(c2ccccc2OCc2ccccc2)c2cnn(-c3nc4ccccc4s3)c2N1 (configuration not stated)	1.8	x
CCOC(=O)C1=C(C)Nc2nc3ccccc3n2C1c1cccc(Cl)c1 (configuration not stated)	-2.1	-1.7
CCCCOC(=O)C1=C(C)NC2=C(C(=O)CCC2)C1c1ccc(OC(C)=O)cc1 (configuration not stated)	-0.34	-0.1
O=C(Nc1ccc(Cl)cn1)c1cc2ccc3cccnc3c2[nH]1	0.58	x
CCCCNS(=O)(=O)c1ccc2c(c1)n(C)c(=O)c(=O)n2C	0.51	0.4
CCSC1=N/C(=C\c2ccc(N(CC)CC)cc2OC)C(=O)S1	-0.57	-1.8
Cc1ccc(Cl)cc1N1CCN(S(=O)(=O)c2cn(C)c(C)n2)CC1	1.5	x
CN(C)CC1=C(Cl)c2ccccc2S1(=O)=O	x	-1.1
O=C1CCCN1CCCNc1ncnc2c1c(-c1ccccc1)cn2-c1ccc(Br)cc1	1.5	x
COc1ccc(C#N)c(C(=O)O)c1	x	-0.86
CC1CCCN(C(=O)c2cc(S(=O)(=O)N3CCCC3)cn2C)C1 (configuration not stated)	0.66	x
COc1ccccc1-c1coc2cc(OCC(=O)OC3CCCCC3)ccc2c1=O	0.65	-1.8
CCN(CC)S(=O)(=O)c1ccc2c(c1)N(CC(=O)N1CCC(C(N)=O)CC1)C(=O)CO2	2.2	x
COc1ccccc1-c1coc2cc(OCC(=O)OCc3ccccc3)ccc2c1=O	-0.34	-0.67
Cc1noc(C)c1CCNc1ncnc2onc(C)c12	1.5	x
CN(CCNS(=O)(=O)c1ccc(-c2ccc(=O)[nH]n2)s1)C1CCCCC1	0.54	x
CCOc1ccc(S(=O)(=O)NCCO)cc1-c1nc2c(C(C)(C)C)nn(C)c2c(=O)[nH]1	x	-1.4

Rewritten with each value named: two of the compounds above.
CCN(CC)S(=O)(=O)c1ccc2c(c1)N(CC(=O)N1CCC(C(N)=O)CC1)C(=O)CO2
- TAR Tat displ = 2.2
- CDC25B-CDK2 inh = x
COc1ccccc1-c1coc2cc(OCC(=O)OCc3ccccc3)ccc2c1=O
- TAR Tat displ = -0.34
- CDC25B-CDK2 inh = -0.67

Next part
SMILES	TAR Tat displ	CDC25B-CDK2 inh
Cc1cccc(-c2nc3c4ccccc4nc(NCCCOC(C)C)n3n2)c1	0.22	-1.2
Cc1nc(SCC(=O)n2c3c(c4ccccc42)CCCC3)n[nH]1	x	1.4
Cc1ccc(C(=O)O)cc1NC1(c2ccccc2)C(=O)c2ccccc2C1=O	-1.4	x
CCCNC(=O)c1c(O)nc2cc(C)ccn2c1=O	0.39	-0.93
Brc1[nH]nc2ncnc(N3CCN(c4ccccn4)CC3)c12	0.42	-0.91
COc1cc2c(c(OC)c1OC)C(c1ccc(Br)cc1)CC(=O)N2 (configuration not stated)	x	-1
O=C(O)c1ccccc1-c1ccccc1C(=O)Nc1nc2ccccc2s1	0.3	-1.5
CCOC(=O)C(=O)Nc1c(C(N)=O)oc2ccccc12	1.9	-1.2
Cc1ccccc1-n1c(=O)c(C#N)cc2c(=O)n3cccc(C)c3nc21	2.2	-0.45
O=Cc1ccccc1OC(=O)c1ccc(C(=O)Oc2ccccc2C=O)cc1	x	-1.4
COc1cc(NC(=O)c2c(-c3ccccc3)nnc3ccccc23)cc(OC)c1	x	-2
Cc1cccn2c(=O)c(C(=O)NC(c3ccccc3)c3ccccc3)c(O)nc12	0.3	-1.3
O=C(NC(=S)N1CCOCC1)c1ccccc1	x	-1.1
Cc1cc(C)cc(OCC(=O)N2N=C3CCC(C)CC3C2(O)C(F)(F)F)c1 (configuration not stated)	x	-1.6
O=C(c1ccc2c(c1)OCO2)N1CCN(C/C=C/c2ccccc2)CC1	-0.01	-0.3
COc1ccc(-c2c3c(=O)n(C)c(=O)n(C)c3c3n2C(C)(C)COC3c2ccc3c(c2)OCO3)cc1 (configuration not stated)	0.04	-0.7
CC1(C(=O)NC2CCCC2)Cn2c(cc3ccccc32)C(=O)N1CCCN1CCOCC1 (configuration not stated)	1.9	x
Cn1cc(C(=O)N2CCc3ccccc3C2)c(=O)c2cc(S(=O)(=O)N3CCCC3)ccc21	x	-1.9
Cc1cc(NS(=O)(=O)c2ccc3c(c2)NC(=O)CC(C)S3)ccc1Br (configuration not stated)	0.6	x
Cc1cc2c(cc1C)NC(=O)CC(c1ccc(Cl)cc1)=N2	1.8	-0.77

Random excerpt: 6 compounds from above.
SMILES	TAR Tat displ	CDC25B-CDK2 inh
Cc1ccc(CNC(=O)C2CCN(S(=O)(=O)c3ccc4c(c3)CC(C)N4C(=O)C3CCC3)CC2)o1 (configuration not stated)	-0.17	x
COc1cc(NC(=O)c2c(-c3ccccc3)nnc3ccccc23)cc(OC)c1	x	-2
O=C1CC(c2ccccc2OCc2ccccc2)c2cnn(-c3nc4ccccc4s3)c2N1 (configuration not stated)	1.8	x
CCOC(=O)N1CCN(S(=O)(=O)N2CCCC(C(=O)NCCOC)C2)CC1 (configuration not stated)	1.7	x
Cc1nc(SCC(=O)n2c3c(c4ccccc42)CCCC3)n[nH]1	x	1.4
Cc1cccn2c(=O)c(C(=O)NC(c3ccccc3)c3ccccc3)c(O)nc12	0.3	-1.3

(next part)
SMILES	TAR Tat displ	CDC25B-CDK2 inh
Cn1cccc1CNCCCSc1nnnn1-c1ccccc1	0.07	0.33
C#CCOc1c(Cl)cc(/C=c2\sc3nc4cc(C)c(C)cc4n3c2=O)cc1OC	x	-1.9
CC1CCN(C(=O)CSC2=NS(=O)(=O)c3ccccc3N2)CC1	-0.34	x
Cc1ccc2oc(-c3ccc(NC(=S)NC(=O)c4ccccc4C)cc3O)nc2c1	x	-0.81
O=C(Nc1ccc2c(c1)OCCO2)c1cc2c(s1)-c1ccc(Cl)cc1S(=O)(=O)C2	3	-2.1
Fc1ccc(CSc2nnc(-c3ccco3)o2)cc1	-1.1	-0.57
CCOc1ccc(-n2c(CC)nc3c(cnn3-c3ccc(F)cc3)c2=O)cc1	1.1	x
CC1CC(C)CN(c2cnnc3c(Cl)cccc23)C1 (configuration not stated)	1.5	x
COc1ccc(OCc2nc(-c3ccc(S(=O)(=O)N4CCOCC4)cc3)no2)cc1	2.2	x
O=C(CN1c2ccccc2NC2=C(C(=O)CCC2)C1c1ccco1)Nc1cc(F)ccc1F (configuration not stated)	-11	x

Single values from the entries so far.
CCOc1ccc(-n2c(CC)nc3c(cnn3-c3ccc(F)cc3)c2=O)cc1 @ TAR Tat displ: 1.1
CC1CCN(C(=O)CSC2=NS(=O)(=O)c3ccccc3N2)CC1 @ TAR Tat displ: -0.34
O=C(Nc1ccc2c(c1)OCCO2)c1cc2c(s1)-c1ccc(Cl)cc1S(=O)(=O)C2 @ CDC25B-CDK2 inh: -2.1
Cn1cccc1CNCCCSc1nnnn1-c1ccccc1 @ TAR Tat displ: 0.07
CC1CC(C)CN(c2cnnc3c(Cl)cccc23)C1 (configuration not stated) @ TAR Tat displ: 1.5
Fc1ccc(CSc2nnc(-c3ccco3)o2)cc1 @ TAR Tat displ: -1.1

Further compounds follow.
SMILES	TAR Tat displ	CDC25B-CDK2 inh
O=C(O)C1CCN(S(=O)(=O)c2cccc3nsnc23)CC1	1.8	x
Cc1cc(C)c2c(=O)c(C#N)coc2c1	x	-1.6
CCCC(=O)Nc1nnc2n1CCS2	1.6	x
O=C1CC(c2ccc(Br)cc2)c2c(n[nH]c2-c2ccccc2)N1 (configuration not stated)	-1.6	-0.23
Cc1cc(NCc2ccccc2Cl)n2nc(-c3ccco3)nc2n1	-0.76	x
Cc1cccc(C2N3CC4(C(C)C)CN2CC(C(C)C)(C3)C4=O)c1 (configuration not stated)	x	-2.4
COc1ccc(C2C(C(=O)c3ccc(C)o3)=C(O)C(=O)N2Cc2cccnc2)cc1OC (configuration not stated)	0	-3
CCc1nc(SCc2cc(=O)n3cc(C)sc3n2)n[nH]1	0.36	x
COc1cccc(C2Nc3ccccc3-n3c(-c4ccccc4)c4c(=O)n(C)c(=O)n(C)c4c32)c1O (configuration not stated)	-0.2	-0.75
Cc1ccc(Oc2c(C(F)(F)F)oc3c(CN4CCOCC4)c(O)ccc3c2=O)cc1	3.8	-0.23
CCOC(=O)c1[nH]c(C)c(S(=O)(=O)N2CCc3ccccc3C2)c1C	-0.19	x
COc1ccc(Cl)cc1Nc1nc(-c2ccncc2)cs1	x	-1.1
COc1ccc(C2/C(=C(/O)c3ccc(C)cc3)C(=O)C(=O)N2CC(C)O)cc1OC (configuration not stated)	0.9	0.1
O=C(Nc1ccc2c(c1)OCCO2)c1csc(-c2cccc3c2CCO3)n1	x	-1.1
COC(=O)C(C)Sc1nnc(CSc2ncccn2)n1-c1ccc(Cl)cc1 (configuration not stated)	-0.08	-0.41
CCCc1c(OCCCOc2ccc(OCC(=O)O)cc2)ccc(C(C)=O)c1O	x	-1.7
CCOC(=O)c1c(NC(C)=O)c2c(C)c(C)sc2n1Cc1nc(-c2cccs2)oc1C	1.1	x
Cc1cc(C)n(CCc2nc3c4ccccc4nc(N4CCN(C(=O)c5ccco5)CC4)n3n2)n1	0.3	-1.5
CC1=C(C(=O)O)N2C(=O)[C@@H](NC(=O)C(N)C3=CCC=CC3)[C@H]2SC1 (some centres not stated)	x	-1
CCOc1ccc(C2C(C(=O)OCCOC)=C(C)NC3=C2C(=O)CCC3)cc1OC (configuration not stated)	0.82	-2
COC(=O)Cn1c(=O)c2cccn2c2ccccc21	0.29	-0.81
COc1ccc(/C(N)=N/OCc2c(Cl)cccc2Cl)cc1	x	-0.32
COC(=O)CSc1cc(C)c(Cl)cc1C	x	0.86
O=C(CC1=NS(=O)(=O)c2ccccc2N1)Nc1ccc2c(c1)OCCO2	1.3	x
O=C1c2cccnc2C(=O)N1Cc1ccc(F)cc1S(=O)(=O)NCc1ccc(Cl)cc1	0.06	x
CCOc1ccc(C2CC(c3ccc(OC)c(OC)c3)n3ncnc3N2)cc1 (configuration not stated)	0.14	-0.71
Cc1nnc2c(N3CCC(C)CC3)nc3ccccc3n12	x	-0.73
CC1(C)C2CC[C@](C)(C2)C1NC(=O)c1c(Cl)cccc1Cl (some centres not stated)	x	-3
CCCC(=O)N1c2nc(CCC)nn2C2(CCCCC2)[C@@H]2CCCC[C@@H]21	-1	0.42
CC(C)(C)c1nnc2sc(COc3ccc(F)cc3)nn12	-1.1	-0.55
CCc1ccc(C2C3=C(CC(c4ccc(OC)cc4)CC3=O)Nc3nnnn32)cc1 (configuration not stated)	-0.05	x
CC(C)(Oc1ccc(Cl)cc1)C(=O)O	-0.11	-0.92
Cc1ccc(-c2nncc(-c3ccc(Br)cc3)n2)cc1	-2.5	-1.4
Cc1ccc2nc(Nc3ccc(C)c(Cl)c3)c3nnnn3c2c1	-0.68	x
COC(=O)c1ccc2c(c1)NC(=O)C(C)N2 (configuration not stated)	-13	x

Screens: PubChem BioAssay, Center for Chemical Genomics, University of Michigan
